Source: PubChem (National Center for Advancing Translational Sciences (NCATS))
PK Bst = modulators of Bacillus stearothermophilus pyruvate kinase; partly purified Bacillus stearothermophilus pyruvate kinase, luminescence ATP production; ribose 5-phosphate activator present at AC10; Potency, µM; 51,000 compounds, 1.2% hits; AID 361; in the data active means potency below about 11 µM; inconclusive means mostly about 12 µM to 25 µM; inactive means weaker than that;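 the screen sought inhibitors and activators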;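 also: potency is read from the fitted curve at half-maximal effect; scaled between full activation by ribose 5 phosphate and full inhibition by luteolin; about four in five hits inhibit and the cells do not say which; series up to 57 µM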
TsaE inh = displaces an ADP probe from E. coli YjeE (TsaE). P0AF67. purified YjeE, fluorescence polarisation of a bound ADP probe. Potency, µM. 71,000 compounds, 0.05% hits. AID 605; active = well fitted falling curve; inconclusive = weaker or top-dose-only fall, or a rising curve; inactive = flat or poorly fitted curve;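 also: top concentration of the series not given in the record; excess ADP was the control for the full effect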
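Purified YjeE (10 uM) with BODIPY Texas Red-labeled ADP probe (2 uM); compounds pin-transferred, 15 min at room temperature. Binding inhibition read as decreased fluorescence polarization; ADP titration as control.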
* hit, by the source's call; i = inactive; ? = inconclusive; nt = not tested or not shown. This is a subset; count on the stated rates, not on these rows.

SMILES	PK Bst	TsaE inh
c1ccc(Cn2c(SCc3nc4ccccc4s3)nnc2-c2ccco2)cc1	>57	i
Cc1cc(C(F)(F)F)nc(SCc2ccc(C(=O)O)o2)n1	>57	i
CC(C)Cc1nnc(NC(=O)CCC(=O)N2CCOCC2)s1	nt	i
Cc1ccc(-n2c(C)cc3c2CCCC3=O)cc1	>57	i
CC(C)Cn1c(CNC(=O)c2ccccc2)nc2ccccc21	>57	i
O=C(c1ccc2snnc2c1)N1CCCC1	nt	i
CCSc1nnc([C@H](C)NC(=O)OC(C)(C)C)o1	>57	i
COc1cc2nc(NCCN3CCOCC3)n3nc(-c4ccccc4)nc3c2cc1OC	>57	i
CCOC(=O)c1nnn(-c2nonc2N)c1COc1cc(C)c(Cl)c(C)c1	>57	i
CCc1ccccc1NC(=O)CSc1nc2n[nH]c(C)c2c(=N)n1-c1ccc(OC)cc1	>57	i
CC1CCCCC1NC(=O)c1cncc(Br)c1 (stereo not drawn)	>57	i
CSc1nc(SC)c2c3c(oc2n1)COC(C)(C)C3	>57	i
O=C(Oc1ccccc1)N1CCC[C@@]2(CCN(c3ncccn3)C2)C1	nt	i
O=C(NCC1CCCO1)c1cc2c(s1)CS(=O)(=O)C2 (stereo not drawn)	>57	i
Cn1c(Cn2nnc3ccccc32)nnc1SCC(=O)N1c2ccccc2Sc2ccccc21	>57	i
CC(C)C(c1nnnn1C1CCCCC1)N1CCc2ccccc2C1 (stereo not drawn)	>57	i
COc1cccc(C(c2sc3ncnn3c2O)N2CCN(C(=O)c3ccco3)CC2)c1 (stereo not drawn)	nt	i
Cc1ccc(N=Cc2ccc[nH]2)c(O)c1	nt	i
COc1ccc(N2CCCn3c2nc2c3c(=O)n(Cc3ccccc3F)c(=O)n2C)cc1	>57	i
COc1ccc(-c2noc(CN3CCC(Cc4ccccc4)CC3)n2)cc1	>57	i

A second format for some results above:
| SMILES | PK Bst | TsaE inh |
| --- | --- | --- |
| Cc1cc(C(F)(F)F)nc(SCc2ccc(C(=O)O)o2)n1 | >57 | i |
| CC(C)Cc1nnc(NC(=O)CCC(=O)N2CCOCC2)s1 | nt | i |
| Cc1ccc(-n2c(C)cc3c2CCCC3=O)cc1 | >57 | i |
| CC(C)Cn1c(CNC(=O)c2ccccc2)nc2ccccc21 | >57 | i |
| O=C(c1ccc2snnc2c1)N1CCCC1 | nt | i |
| CCSc1nnc([C@H](C)NC(=O)OC(C)(C)C)o1 | >57 | i |

Next part
SMILES	PK Bst	TsaE inh
COc1ccc(C)cc1S(=O)(=O)Nc1ccc(F)cc1	>57	i
CC(C)C(c1nnnn1C1CCCC1)N1CCCc2ccccc21 (stereo not drawn)	>57	i
CC(C)(C)c1cc(Br)ccc1OCC(=O)Nc1ncn[nH]1	nt	i
COc1ccc(Nc2ncc3c(n2)CC(c2ccc(OC)cc2)CC3=O)cc1 (stereo not drawn)	>57	i
O=C(c1ccc(CS(=O)(=O)c2ccc(Br)cc2)o1)N1CCN(c2ncccn2)CC1	nt	i
CCC1Oc2ccc(C)cc2N(CC(=O)N(Cc2ccc3c(c2)OCO3)CC2CCCO2)C1=O (stereo not drawn)	>57	i
CCOC(=O)N1CCN(c2c(Nc3ccc4c(c3)OCCO4)c(=O)c2=O)CC1	nt	i
COC(=O)c1cccc(-n2nnnc2SCC(=O)Nc2nc3c(s2)CCCC3)c1	>57	i
Cc1cc(C)n(C(=O)c2cc3ccccc3c(=O)o2)n1	>57	i
Cn1c(NCc2ccco2)nc2ccccc21	>57	i
CC(NC(=O)Nc1ccccc1)C(c1cccs1)N1CCN(C)CC1 (stereo not drawn)	nt	i
c1c2c(cc3sc(N4CCOCC4)nc13)OCO2	i	i
CCOc1ccc(C(=O)N2CCCCCC2)cc1	>57	i
CCCOc1ccc(C(=O)Nn2c(C)nc3ccccc3c2=O)cc1	>57	i
COc1ccc(N2C(=O)C3CCCN3C2c2cccc(Br)c2)cc1 (stereo not drawn)	nt	i
COc1ccc2[nH]c(C)c(CCN3C(=O)OC(C)(C)C3(C)O)c2c1 (stereo not drawn)	nt	i
COc1ccc(-c2nc(-c3cccs3)c(-c3cccs3)[nH]2)cc1O	nt	i
CC(C)NC(=O)Cn1c(SCC(=O)N2CCc3ccccc3C2)nc2ccccc21	>57	i
CCOC(=O)c1cc(-c2ccc(/C=N\n3cnnc3)o2)ccc1Cl	nt	i
Cc1cc(NCc2ccc3c(c2)OCO3)n2nc(C)nc2n1	nt	i

In a second layout: 7 of the compounds above
Values run as follows: PK Bst	TsaE inh
- O=C(c1ccc(CS(=O)(=O)c2ccc(Br)cc2)o1)N1CCN(c2ncccn2)CC1
 : nt	i
- CCC1Oc2ccc(C)cc2N(CC(=O)N(Cc2ccc3c(c2)OCO3)CC2CCCO2)C1=O (stereo not drawn)
 : >57	i
- CCOC(=O)N1CCN(c2c(Nc3ccc4c(c3)OCCO4)c(=O)c2=O)CC1
 : nt	i
- COC(=O)c1cccc(-n2nnnc2SCC(=O)Nc2nc3c(s2)CCCC3)c1
 : >57	i
- Cc1cc(C)n(C(=O)c2cc3ccccc3c(=O)o2)n1
 : >57	i
- Cn1c(NCc2ccco2)nc2ccccc21
 : >57	i
- CC(NC(=O)Nc1ccccc1)C(c1cccs1)N1CCN(C)CC1 (stereo not drawn)
 : nt	i

Going on with the list.
SMILES	PK Bst	TsaE inh
O=C(O)c1cccc(CN2C(=O)SC(Nc3ccccc3)C2=O)c1 (stereo not drawn)	>57	i
C#CCn1cc[n+](CC(=O)N(C)C)c1	>57	i
O=C(Nc1ccc(N2CCOCC2)cc1)C1CCCN(S(=O)(=O)c2cccc(C(F)(F)F)c2)C1 (stereo not drawn)	>57	i
O=C(NCC1CCCO1)c1ccc(N2CCCCC2)nc1 (stereo not drawn)	>57	i
Cc1cccc(-c2noc(CN(C)S(=O)(=O)c3cc(Cl)ccc3Cl)n2)c1	>57	i
CCn1c(COc2cccc(OC)c2)nnc1SCC(=O)Nc1ccccc1C(=O)OC	>57	i
CCCn1c(=N)c(C(=O)NCC2CCCO2)cc2c(=O)n3cccc(C)c3nc21 (stereo not drawn)	>57	i
Cc1cccc(-n2ncc3c(NCc4ccccn4)ncnc32)c1	>11.4	i
COc1ccc(-n2ncc3c(NCCCN4CCOCC4)ncnc32)cc1	nt	i
CC(C)OCCCNC(=O)c1cc2c(s1)CS(=O)(=O)C2	>57	i
O=C(O)c1ccc([N+]2=Cn3c(nc4ccccc43)C2)cc1	nt	i
COc1cc(OC)cc(-c2nnc(SCC(=O)N3CCCC3)o2)c1	>57	i
NC(=O)c1ccsc1NC(=O)COC(=O)C1CCCN1C(=O)c1cccs1 (stereo not drawn)	>57	i
CC(Oc1ccc(Cl)cc1Cl)C(=O)NC1CCSC1=O (stereo not drawn)	>57	i
CC1(C)C2CCC1(C)C(NC1=NCCC1)C2 (stereo not drawn)	>57	i
c1ccc(Cn2c(CNc3nc4ccccc4n3CCN3CCOCC3)nc3ccccc32)cc1	>57	i
COCCNC(=O)CS(=O)Cc1nc(-c2ccc(OC)cc2)oc1C (stereo not drawn)	nt	i
O=C(COc1ccc(Cl)cc1)NC1CCSC1=O (stereo not drawn)	>57	i
O=C1CC(C(=O)Nc2ccccc2)N=C(N2CCOCC2)N1 (stereo not drawn)	>57	i
Cc1ccc2c(c1)c1c(n2CC(O)CN2C(=O)CNC2=O)C(=O)CCC1 (stereo not drawn)	nt	i
CC(C)C[C@H](N)c1nnc(S(=O)(=O)Cc2ccc(F)cc2)o1	>57	i
Cc1cc(N2CCN(Cc3ccc4c(c3)OCO4)CC2)n2ncnc2n1	>57	i
CCOCCCNC(=O)c1c[nH]c2cc(C)ccc2c1=O	>57	i
COC(=O)Cn1ncc2c(C)n(Cc3ccccc3)c(C)c2c1=O	nt	i
O=S(=O)(NCc1cn2ccsc2n1)c1ccc(Oc2ccccc2)cc1	>57	i
Cc1nc(CN2CCN(C(=O)c3ccc(Br)cc3)CC2)cs1	>57	i
OCCSc1nc(-c2cccnc2)nc2ccccc12	?	i
CC(=O)N1C2(C=CC1(C)C(=O)NCc1ccccn1)CCCCC2 (stereo not drawn)	nt	i
Cc1ccc2c(c1)-c1c(cnn1CC(=O)O)CO2	>57	i
COc1ccc(CCN(C)CCCOc2ccc(S(=O)(=O)c3[nH]c4ccccc4c3C(C)C)cc2)cc1OC	nt	i
Cc1c(C(=O)Nc2c(C)n(C)n(-c3ccccc3)c2=O)oc2ccccc12	>57	i
Fc1ccc(C(c2nnnn2Cc2cccs2)N2CCN(C3CCCCC3)CC2)cc1 (stereo not drawn)	>57	i
Cc1ccsc1C(C(=O)NC1CCCCC1)N(C(=O)Cc1cccs1)C1CC1 (stereo not drawn)	>57	i
CC1CCN(CC[S-])CC1.O.O.[Cl][Pt]	nt	i
CCOc1cc(C2C(C(=O)N3CCCCC3)=C(C)NC3=C2C(=O)CCC3)cc(Br)c1O (stereo not drawn)	>57	i
CCOc1ccccc1NC(=O)CN(C)S(=O)(=O)c1cccc2nsnc12	>57	i
Cc1cc(C(F)(F)F)nn1-c1nc(-c2ccco2)cc(C(F)(F)F)n1	>57	i
CC(C)C1N=C2c3ccccc3N=C(SCc3cc(=O)n4ccccc4n3)N2C1=O (stereo not drawn)	>57	i
N#CCCN(C(=O)c1ccco1)c1ccccc1	>25.6	nt
COc1ccc(C2CC(c3ccc(C)cc3)Nc3nc(N)nn32)cc1 (stereo not drawn)	>25.6	nt

Shown with the structure last: entries from further up
| PK Bst | TsaE inh | compound |
| --- | --- | --- |
| >57 | i | Cc1cc(N2CCN(Cc3ccc4c(c3)OCO4)CC2)n2ncnc2n1 |
| >57 | i | CC(C)C1N=C2c3ccccc3N=C(SCc3cc(=O)n4ccccc4n3)N2C1=O (stereo not drawn) |

(more compounds)
SMILES	PK Bst	TsaE inh
Cc1cn(-c2ccc(Br)cc2)[nH]c1=O	nt	i
CCc1ccc(NC(=O)c2cc(C(C)C)on2)cc1	i	i
O=C(NCc1ccccc1)c1ccc(CN2CCOCC2)cc1	nt	i
O=CCCCC=O	nt	i
COc1ccc2c(Cl)cc(NC(=S)Nc3ccccc3)nc2c1	nt	i
COC(=O)c1ccc2c(=O)n(Cc3ccco3)c(SCC(=O)Nc3ccccc3Cl)nc2c1	>57	i
COc1ccc(OC)c(NC(=O)CN(c2ccc(OC)c(Cl)c2)S(C)(=O)=O)c1	>57	i
CCOc1ccccc1NC(=O)c1ccc(F)c(S(=O)(=O)N2CCC3(CC2)OCCO3)c1	>57	i
COc1ccc(N(CC(=O)Nc2ccc3c(c2)OCCO3)S(=O)(=O)c2c(C)noc2C)cc1	>57	i
CCCc1cc(=O)n2[nH]c(Cc3ccccc3)nc2n1	>57	i
CCN(C(=O)CN1CCN(c2ccc(O)cc2)CC1)c1c(N)n(Cc2ccccc2)c(=O)[nH]c1=O	>57	i
CSCCC(NS(=O)(=O)c1ccc2c(c1)OCCO2)C(=O)NCCc1ccccn1 (stereo not drawn)	>57	i
Cc1ccc(-n2c(=O)c3c4c(sc3n3c(C)nnc23)COC(C(C)C)C4)cc1 (stereo not drawn)	>25.6	nt
O=C(/C=N/O)NCCCn1ccnc1	>57	i
Cc1oc(-c2ccc(Cl)cc2)nc1CN1CCC(C(=O)NCCCN2CCOCC2)CC1	>57	i
COC(=O)Cc1cc(=O)n(-c2nc3ccccc3[nH]2)[nH]1	>57	i
COC(=O)COc1ccc(-c2nn(C)c(=O)c3ccccc23)cc1	>57	i
CC(=O)C1C(c2ccccc2OC(F)F)NC(=O)NC1(O)C(F)(F)F (stereo not drawn)	>57	i
COc1ccccc1N1CCN(CC(=O)c2c(C)n(C)c3ccccc23)CC1	>57	i
O=C(Cn1nc(-c2ccc(Cl)cc2)ccc1=O)N1CCN(c2ccccc2)CC1	>57	i
CSc1ccc(C2NC(=O)c3c(sc4c3CCN(C)C4)N2)cc1 (stereo not drawn)	nt	i
Cc1cc(=O)[nH]c(SCCOc2ccc3c(c2)CCC3)n1	>57	i
Cc1ccc(-c2nc(NCCN3CCOCC3)c3ccccc3n2)cc1	nt	i
CCOC(=O)N1CCN(C(=O)CSc2nc3c([nH]c4ccccc43)c(=O)n2C)CC1	nt	i
CC(=O)CC(=O)Nc1ccccc1	nt	i
CCOC(=O)N1CCN(C(=O)CCSc2ccccc2)CC1	nt	i
Cc1nn(C(=O)N2CCCCC2)c(C)c1CN1C(=O)c2ccccc2C1=O	>57	i
CCCn1nnc(NC(=O)C(C)Oc2ccc(Cl)cc2Cl)n1 (stereo not drawn)	?	i
Cc1sc2ncn(CC(=O)OCC(=O)NC(C)(C)C)c(=O)c2c1C	>57	i
CCOC(=O)C(C)n1cnc2c(nnn2Cc2ccc(C)cc2)c1=O (stereo not drawn)	>57	i
COCCOC(=O)c1c(C)nc(SCC(=O)Nc2ccc(C)cc2)c(C#N)c1-c1ccco1	>25.6	nt
Cc1ccc(-c2nnc(-c3ccc4ccccc4c3)o2)cc1	nt	i
O=C(O)c1ccc(NS(=O)(=O)c2cc(Cl)ccc2Cl)cc1	nt	i
Cc1nn(C)c(C)c1S(=O)(=O)NC1CCCC1	>57	i
CCOc1ccc(N2C(=O)CC(/C=C3/N(C)c4ccccc4C3(C)C)C2=O)cc1 (stereo not drawn)	>57	i
CCOc1ccccc1-n1c(SCC(=O)N(CC)CC)nnc1-c1ccccn1	>57	i
CCc1ccc(C2CC(c3ccccc3Cl)Nc3nc(N)nn32)cc1 (stereo not drawn)	nt	i
Cc1ccc(SCc2cc(=O)[nH]c(N3CCN(Cc4ccccc4)CC3)n2)cc1	>57	i
Cc1ccc(Oc2ccc(NC(=O)c3ccco3)cc2)cc1	nt	i
COc1cc(C2C(C(=O)c3ccc(C)o3)=C(O)C(=O)N2c2cc(C)on2)cc(Br)c1O (stereo not drawn)	>57	i
O=C(CCCSc1nc2ccccc2s1)NCc1ccco1	>57	i
Cc1ccc(C(=O)C(C)OC(=O)C2=COCCO2)cc1C (stereo not drawn)	>57	i
